Screening results deposited in PubChem by several laboratories.
GALR2 agonist = agonists of human galanin receptor 2 (GALR2); O43603; GALR2-expressing cells, agonist activation read-out; activation, %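 (tested at 5 µM)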; 140,000 compounds, 0.48% hits; AID 803;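 active = above mean plus 3 SD of all compounds, about 5% in these data, not always enough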;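 also: 0% = vehicle buffer wells and 100% = reference agonist at full effect; tested in CHO reporter cells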
HSV augment = HSV replication enhancement; HSV replication augmentation in cells, fold increase; maximum fold increase; 220,000 compounds, 0.005% hits;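 active = peak rise of 1.5-fold or more in the series; tested in PC3 cells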;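 also: first round at 10 µM; read as green reporter fluorescence; hits show the peak of a series up to 25 µM; 1 = signal of infected wells without compound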
Insulin prom inh = TRM-6 insulin promoter activity inhibition; TRM-6 cells (human fetal islet line), insulin promoter-eGFP reporter, imaging; reporter expression induced with tamoxifen; 130,000 compounds, 0.9% hits; inhibition, % at 2 µM; AID 1273;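 active = inhibition above the mean plus 3 SD, with well images judged a real hit on visual review, cut at about 60% in these data, passing the limit was not always enough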
RGS16-Gao = regulators of human RGS16-Galphao interaction; bead-based flow cytometry RGS16-Galphao binding, fluorescence; actives lie on both sides; binding response (% of control), % at 10 µM; 220,000 compounds, 0.38% hits;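 active = below 25% or above 175%, edge rows of some plates excepted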;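 also: Galphao activated by GDP with aluminum fluoride before binding; 100% = wells without compound and 0% = beads without RGS; some results beyond the cut were filed as inactive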
PKD1 inh = blocks activity of human protein kinase D1. Q15139. PKD1 kinase fluorescence polarization assay. inhibition, %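 (about 10 µM by stock and volumes)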. 200,000 compounds, 0.056% hits;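 active = inhibition of 50% or more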;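 also: controls were vehicle for no effect and a reference inhibitor for full effect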
Target sequence (Q15139 whole entry, looked up): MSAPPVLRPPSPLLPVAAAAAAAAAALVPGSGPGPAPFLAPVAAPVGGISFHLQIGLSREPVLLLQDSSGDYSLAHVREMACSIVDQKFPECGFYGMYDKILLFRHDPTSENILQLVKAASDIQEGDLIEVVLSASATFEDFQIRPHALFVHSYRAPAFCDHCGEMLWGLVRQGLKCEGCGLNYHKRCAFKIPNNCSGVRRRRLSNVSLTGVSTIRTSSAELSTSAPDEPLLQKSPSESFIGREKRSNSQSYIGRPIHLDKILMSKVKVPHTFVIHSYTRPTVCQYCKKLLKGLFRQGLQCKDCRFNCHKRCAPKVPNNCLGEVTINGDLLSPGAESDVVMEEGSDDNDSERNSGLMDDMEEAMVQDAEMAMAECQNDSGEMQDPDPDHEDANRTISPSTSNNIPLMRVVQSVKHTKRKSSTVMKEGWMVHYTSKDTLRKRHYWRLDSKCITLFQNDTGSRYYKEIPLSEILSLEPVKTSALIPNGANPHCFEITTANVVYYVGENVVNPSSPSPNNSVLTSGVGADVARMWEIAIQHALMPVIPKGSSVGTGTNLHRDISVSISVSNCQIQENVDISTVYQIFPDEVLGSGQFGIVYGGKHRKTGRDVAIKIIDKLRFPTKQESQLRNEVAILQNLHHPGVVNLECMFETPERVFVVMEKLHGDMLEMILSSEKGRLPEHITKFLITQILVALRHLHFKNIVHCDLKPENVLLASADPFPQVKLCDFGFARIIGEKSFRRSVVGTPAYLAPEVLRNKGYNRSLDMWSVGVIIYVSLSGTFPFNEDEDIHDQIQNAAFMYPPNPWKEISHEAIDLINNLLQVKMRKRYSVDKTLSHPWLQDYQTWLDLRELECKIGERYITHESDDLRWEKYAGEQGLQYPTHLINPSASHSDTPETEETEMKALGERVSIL
Insulin prom inh cell count = further read-out of Insulin prom inh, marked with its call; normalized cell count, %; measured here: cell count, toxicity; reference of the scale not given here;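 cells exposed to compound for 48 h; stained nuclei by imaging scaled within each plate; lower means fewer cells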
HSV augment primary fold = further read-out of HSV augment, marked with its call; fold increase; compound at 10 µM; measured here: primary screen fold increase 10 uM; tested in PC3 cells;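 GFP signal in the first replicate; 1 = infected wells without compound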
Starred values were filed as active, the others as inactive; i = inactive; / = no result given.

Short forms: A = GALR2 agonist; B = HSV augment; C = HSV augment primary fold; D = Insulin prom inh; E = Insulin prom inh cell count; F = RGS16-Gao; G = PKD1 inh
NC(=O)CC[C@@H]1NC(=O)[C@H](CO)NC(=O)c2cc([N+](=O)[O-])cc(I)c2NCC[C@@H](C(N)=O)NC(=O)[C@H](Cc2ccc(O)cc2)NC1=O
  A: -2.3 | B: / | C: / | D: 0.0 | E: 48.4 | F: 104.9 | G: -12.7
COc1ccc(-c2nc3n(n2)C(c2ccccc2Cl)C(C(N)=O)=C(C)N3)cc1 (centres undefined)
  A: 0.4 | B: i | C: 0.72 | D: / | E: / | F: 90.7 | G: -9.6
Cc1ccc(N2C(=O)C3CC3C2=O)cc1 (centres undefined)
  A: / | B: i | C: 0.88 | D: / | E: / | F: 101.0 | G: 1.1
COc1ccc(NC(=O)c2ccc([N+](=O)[O-])s2)c([N+](=O)[O-])c1
  A: / | B: i | C: 1.08 | D: / | E: / | F: 105.6 | G: -2.5
O=C(c1cccs1)N1CCN(S(=O)(=O)c2ccccc2)CC1
  A: 0.3 | B: i | C: 0.85 | D: 33.3 | E: 62.9 | F: 108.4 | G: -3.0
CCOCCCNC(=O)C(c1ccc(C)cc1)N(Cc1ccc2c(c1)OCO2)C(=O)c1ccccn1 (centres undefined)
  A: / | B: i | C: 1.16 | D: -11.1 | E: 104.7 | F: 98.8 | G: 9.1
CN(C)/C=C/C(=O)c1ncc(C(F)(F)F)cc1Cl
  A: / | B: i | C: 0.96 | D: 11.1 | E: 151.0 | F: 109.2 | G: 2.5
CN1C(=O)C2(C(C#N)=C(N)Oc3n[nH]c(-c4ccc(Cl)cc4)c32)c2ccccc21 (centres undefined)
  A: -1.2 | B: i | C: 0.977 | D: / | E: / | F: 98.6 | G: -0.8
O=C(C1=C(O)C(=O)N(c2ncccn2)C1c1ccc(F)cc1)c1ccco1 (centres undefined)
  A: / | B: i | C: 1.18 | D: / | E: / | F: 97.3 | G: /
CC(C)CCc1noc(CN2CCN(c3ccc(Cl)cn3)CC2)n1
  A: / | B: i | C: 0.88 | D: / | E: / | F: 99.2 | G: 4.5
CN1CCN(C(CC(=O)Nc2cccc(O)c2)C(=O)O)CC1 (centres undefined)
  A: / | B: i | C: 1.02 | D: / | E: / | F: 100.9 | G: -4.6
O=C(CCc1nc(-c2ccccc2)no1)NCC1CCCO1 (centres undefined)
  A: -1.7 | B: / | C: / | D: / | E: / | F: 93.3 | G: 8.8
CN(C)CCCNS(=O)(=O)c1ccc(Oc2ncc(C(F)(F)F)cc2Cl)cc1
  A: -0.9 | B: i | C: 0.77 | D: -91.7 | E: 87.7 | F: 97.9 | G: -5.5
CC(C)COC(=O)n1c(SCC(=O)N(C)C)nc2ccccc21
  A: -1.8 | B: i | C: 1 | D: -41.4 | E: 89.5 | F: 107.8 | G: -7.9
C=CCC(CC(O)COCCC)C(=O)NNC(=S)Nc1ccccc1 (centres undefined)
  A: / | B: i | C: 0.94 | D: / | E: / | F: 100.7 | G: /
Cc1nn2c(N3CCN(c4ccccn4)CC3)cc(C(C)C)nc2c1-c1ccccc1
  A: -1.4 | B: i | C: 0.85 | D: / | E: / | F: 109.3 | G: -12.8
O=[N+]([O-])c1ccc(OCC(O)CNCCNc2nccc(C(F)(F)F)n2)cc1 (centres undefined)
  A: / | B: i | C: 0.88 | D: / | E: / | F: 114.6 | G: /
O=C(NN=C1CCCCCC1)NC1CCCCC1
  A: -0.9 | B: i | C: 1.07 | D: 29.4 | E: 133.7 | F: 104.7 | G: 6.4
COc1ccc(Cn2c(CCCO)nc3ccccc32)cc1OC
  A: 0.4 | B: i | C: 0.96 | D: 25.8 | E: 13.8 | F: 107.2 | G: -2.1
O=C(Nc1ccc(Cl)cc1)Nc1csc([N+](=O)[O-])c1
  A: / | B: i | C: 0.8 | D: / | E: / | F: 99.0 | G: /
COc1ccc(NC(=O)Nc2ccc(N3CCOCC3)c3nonc23)c(OC)c1
  A: / | B: i | C: 0.95 | D: / | E: / | F: 63.5 | G: 0.9
CN(C)[C@@H](CO)c1nnc([C@H](CCC(=O)O)NC(=O)C2CCNCC2)o1
  A: / | B: i | C: 1.01 | D: / | E: / | F: 97.9 | G: -3.2
COc1ccc(/C=C(\C#N)C(=O)OCC(=O)Nc2ccc(C(C)(C)C)cc2)cc1
  A: -0.5 | B: i | C: 0.98 | D: / | E: / | F: 107.1 | G: -14.8
Cc1ccc(-n2c(C)cc(C=C(C#N)C#N)c2C)cc1
  A: -0.2 | B: i | C: 1.03 | D: -37.2 | E: 115.6 | F: 100.8 | G: -0.6
CN(C)/C(CN1CCCCC1)=C1\N=C(c2ccccc2)OC1=O
  A: -2.9 | B: i | C: 0.72 | D: -12.5 | E: 123.0 | F: 110.5 | G: -13.2
CCOC(=O)C1(Cc2cccc(F)c2)CCN(C(=O)c2cscn2)CC1
  A: / | B: i | C: 0.98 | D: / | E: / | F: 97.2 | G: 3.8
Cc1cccc(C)c1OCC(=O)N/N=C/c1cccn1C
  A: -2.8 | B: i | C: 0.78 | D: 52.4 | E: 65.9 | F: 104.7 | G: -2.7
O=C(NCc1ccc2c(c1)OCO2)C1CCC(=O)N1C1CCCCC1 (centres undefined)
  A: / | B: i | C: 1.09 | D: / | E: / | F: 108.8 | G: /
COc1ccc(C(CC(=O)O)NC(=O)c2ccco2)cc1 (centres undefined)
  A: -2.3 | B: i | C: 0.84 | D: -39.3 | E: 87.8 | F: 118.6 | G: -4.7
CCc1c(-c2ccccc2)[n+](=O)c2c(n1[O-])CCC2
  A: / | B: i | C: 0.87 | D: / | E: / | F: 106.2 | G: /
COc1ccc2c(c1)CCc1c(C(=O)NCCc3ccc(OC)c(OC)c3)noc1-2
  A: -2.3 | B: i | C: 0.89 | D: / | E: / | F: 102.3 | G: 0.4
CC(C)c1ccc(N(CC(=O)N/N=C/c2ccc(OC3CSC3)cc2)S(=O)(=O)c2ccccc2)cc1
  A: -0.6 | B: i | C: 1.04 | D: / | E: / | F: 108.1 | G: -8.2
Nc1cccc(CCc2nc3ccccc3[nH]2)c1
  A: -1.2 | B: i | C: 1.1 | D: / | E: / | F: 102.2 | G: -10.7
O=C(CNC(=S)N(Cc1ccccc1)Cc1ccccc1F)NCc1ccccc1
  A: / | B: i | C: 0.95 | D: -3.7 | E: 62.2 | F: 87.8 | G: -7.3
COC(=O)c1c(C(=O)OC)c(-c2ccc(C)cc2)n2c1CCC2
  A: -2.8 | B: i | C: 1.28 | D: / | E: / | F: 128.9 | G: 9.0
C=C(C)CNC(=S)NNC(=O)c1cc(C)oc1C
  A: 0.4 | B: i | C: 0.81 | D: 40.0 | E: 136.0 | F: 101.6 | G: 3.8
COc1ccc(Cn2nnnc2C(c2cccs2)N2CCOCC2)cc1 (centres undefined)
  A: 0.2 | B: i | C: 0.99 | D: 100.0* | E: 0.0* | F: 99.9 | G: -6.7
C=CC[N+](C)(C)C/C(Cl)=C(\Cl)c1ccccc1
  A: -1.0 | B: i | C: 0.9 | D: / | E: / | F: 102.0 | G: 4.4
O=C(NCC1CCCO1)C1CCC(=O)N1Cc1ccc(F)cc1 (centres undefined)
  A: -2.6 | B: i | C: 1 | D: 36.1 | E: 135.2 | F: 101.0 | G: 3.8

Reformatted: entries from further up
SMILES	GALR2 agonist	HSV augment	HSV augment primary fold	Insulin prom inh	Insulin prom inh cell count	RGS16-Gao	PKD1 inh
COc1ccc(C(CC(=O)O)NC(=O)c2ccco2)cc1 (centres undefined)	-2.3	i	0.84	-39.3	87.8	118.6	-4.7
CCc1c(-c2ccccc2)[n+](=O)c2c(n1[O-])CCC2	/	i	0.87	/	/	106.2	/
COc1ccc2c(c1)CCc1c(C(=O)NCCc3ccc(OC)c(OC)c3)noc1-2	-2.3	i	0.89	/	/	102.3	0.4
CC(C)c1ccc(N(CC(=O)N/N=C/c2ccc(OC3CSC3)cc2)S(=O)(=O)c2ccccc2)cc1	-0.6	i	1.04	/	/	108.1	-8.2
Nc1cccc(CCc2nc3ccccc3[nH]2)c1	-1.2	i	1.1	/	/	102.2	-10.7
O=C(CNC(=S)N(Cc1ccccc1)Cc1ccccc1F)NCc1ccccc1	/	i	0.95	-3.7	62.2	87.8	-7.3
COC(=O)c1c(C(=O)OC)c(-c2ccc(C)cc2)n2c1CCC2	-2.8	i	1.28	/	/	128.9	9.0
C=C(C)CNC(=S)NNC(=O)c1cc(C)oc1C	0.4	i	0.81	40.0	136.0	101.6	3.8
COc1ccc(Cn2nnnc2C(c2cccs2)N2CCOCC2)cc1 (centres undefined)	0.2	i	0.99	100.0*	0.0*	99.9	-6.7
C=CC[N+](C)(C)C/C(Cl)=C(\Cl)c1ccccc1	-1.0	i	0.9	/	/	102.0	4.4
O=C(NCC1CCCO1)C1CCC(=O)N1Cc1ccc(F)cc1 (centres undefined)	-2.6	i	1	36.1	135.2	101.0	3.8

The order is random; 1.3% or so of the library scored in one or more.
